Assay outcomes (PubChem)
Sa helicase inh: S. aureus DNA helicase inhibition. purified S. aureus helicase, fluorescence unwinding assay; about half of the hits fall short of the stated cut. inhibition, %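 (tested at about 80 µM)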. actives 0.05% (n = 120,000). AID 485395;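 active means both duplicates at 50% or more, or one of them with a favoured structure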;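 further: 0% = mean of negative control wells and 100% = mean of positive control wells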
MgrA-DNA mod: modulators of Staphylococcus aureus MgrA DNA binding. fluorescence polarization. inhibition, %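 (about 10 µg/mL by stock and volumes)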. actives 0.13% (n = 84,000). AID 602314;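 active means above 50% in either of two replicates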;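 further: 0% = protein plus DNA without compound and 100% = DNA alone without protein; higher means less MgrA bound to DNA so lower polarization; one replicate is shown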
The depositor's hits bear a star; . = not tested or not shown.

SMILES | Sa helicase inh | MgrA-DNA mod
O=S(=O)(Nc1ccccc1)c1ccc2oc3ccc(S(=O)(=O)Nc4ccccc4)cc3c2c1 | 5.0 | 1.8
CN(C(=O)NCc1noc2ccccc12)c1ccccc1 | -1.0 | 6.9
CCOC(=O)c1sc(NC(=O)C2CC(=O)N(c3ccccc3)C2)c(C#N)c1C (stereo unspecified) | 4.0 | -2.5
CCOC(=O)c1c(NC(=O)CSc2nccn2C)sc2c1CCCC2 | 1.0 | -0.5
N#Cc1ccc(NC(=O)Cc2ccccc2)cc1 | -11.0 | 0.3
Cc1ccc(-c2nc(N)sc2CC(=O)OCC(=O)NCc2cccs2)cc1 | -16.0 | .
O=C(CN1C(=O)CCC1=O)c1ccc(F)cc1 | . | -1.6
N#CC1=C(SCC(=O)Nc2cccc(Cl)c2)NC2=C(C(=O)CCC2)C1c1ccco1 (stereo unspecified) | -17.0 | .
CC1=CC(=C(C#N)C#N)C=C(c2ccccc2)O1 | 19.0 | 2.5
COC(=O)C(CC(C)C)NC(=O)c1ccc2c(c1)OCO2 (stereo unspecified) | 9.0 | .
Cc1cc2ccccc2n1-c1ccc(C(=O)N2CCC(C(=O)N(C)Cc3ccccc3)CC2)s1 | 6.0 | .
O=C(CN(Cc1ccccc1)S(=O)(=O)c1ccc(Br)cc1)N1CCOCC1 | 26.0 | .
O=C(O)c1cc2cc(Cc3cccnc3)ccc2o1 | . | 2.2
O=C1CCC(Cc2ccccc2)C(C(=O)O)C1 (stereo unspecified) | -1.0 | -4.5
Cc1cc(C(=O)CSc2nnc(N)s2)c(C)n1Cc1cccs1 | -1.0 | .
Cc1cccc(CCNC(=O)CSc2c3c(nc4ccc(Cl)cc24)CCCC3)c1 | 18.0 | 0.1
CCSc1[nH]c(=O)cc(C)c1C#N | 4.0 | .
Cc1ccc(SC(=O)N/C=C/c2ccsc2)cc1 | . | 0.3
CC(Nc1ncnc2c1oc1ccccc12)C12CC3CC(CC(C3)C1)C2 (stereo unspecified) | 16.0 | .
COc1ccc(CC(=O)n2[nH]c(=O)ccc2=O)cc1OC | -14.0 | 11.2
O=C(c1ccccc1SCc1ccccc1)N1CCCc2ccccc21 | -3.0 | -0.6
O=C1NC(CCc2ccccc2)C(=O)N1Cc1cc(=O)n2ccsc2n1 (stereo unspecified) | 9.0 | .
Cc1cc(N2CCCCC2)nc(N2CCC(O)(Cc3ccccc3)CC2)n1 | -14.0 | 2.6
O=C(c1cnccn1)N(Cc1cccs1)C1(C(=O)NC2CCCC2)CCCCC1 | 2.0 | 4.1
CC(=O)Nc1cc(NC(C)=O)cc(C(=O)N2CCCC3CCCCC32)c1 (stereo unspecified) | 10.0 | .

Six consecutive entries from above, for reference:
SMILES | Sa helicase inh | MgrA-DNA mod
O=C1CCC(Cc2ccccc2)C(C(=O)O)C1 (stereo unspecified) | -1.0 | -4.5
Cc1cc(C(=O)CSc2nnc(N)s2)c(C)n1Cc1cccs1 | -1.0 | .
Cc1cccc(CCNC(=O)CSc2c3c(nc4ccc(Cl)cc24)CCCC3)c1 | 18.0 | 0.1
CCSc1[nH]c(=O)cc(C)c1C#N | 4.0 | .
Cc1ccc(SC(=O)N/C=C/c2ccsc2)cc1 | . | 0.3
CC(Nc1ncnc2c1oc1ccccc12)C12CC3CC(CC(C3)C1)C2 (stereo unspecified) | 16.0 | .

The results go on:
SMILES | Sa helicase inh | MgrA-DNA mod
COc1cc(C(C(=O)NC2CCCCC2)N(Cc2ccco2)C(=O)c2cnccn2)cc(OC)c1OC (stereo unspecified) | 12.0 | 0.2
CCCOC(=O)C1=C(C)NC2=C(C(=O)CC(c3ccc(OC)cc3)C2)C1c1cc2c(cc1Cl)OCO2 (stereo unspecified) | . | 0.6
CCCCNC(=O)CN1N=C(c2ccccc2)CCC1=O | 8.0 | .
O=C(C1CCCCC1)N1CCc2[nH]c3ccc(F)cc3c2C1 | . | -0.2
O=C(CSc1ccccc1C(=O)O)NC1CCCc2ccccc21 (stereo unspecified) | -16.0 | -2.9
Cc1ccc2c(c1)C1CN(C)CCC1N2C(=S)Nc1ccc(S(=O)(=O)N2CCOCC2)cc1 (stereo unspecified) | -9.0 | .
Nc1c(N2CCCC2)c2ccccc2oc1=O | 14.0 | .
Cn1c(=O)c(-c2nc(-c3ccccc3)cs2)cn(-c2ccccc2)c1=O | . | 3.5
O=C1c2ccccc2NC(c2ccc(Cl)cc2Cl)N1O (stereo unspecified) | 17.0 | .
CC1CCc2c(sc3nc(=S)sc(N)c23)C1 (stereo unspecified) | 25.0 | .
COC(CNC(=O)c1ccc(Cn2nnc3ccccc3c2=O)cc1)OC | 4.0 | -1.7
CC(C)n1c(CN(C)c2ccccc2)nc2ccccc21 | 6.0 | 6.2
CCOC(=O)/C=c1\s/c(=C\c2ccc(C#N)cc2)c(=O)n1CC(=O)N1CCCCC1C (stereo unspecified) | 2.0 | .
c1ccn(-c2cnccn2)c1 | . | 2.8
CCOC(=O)C(CCC#N)(CCC#N)C(C)=O | . | 1.8
O=C(NCCN1C(=O)C2C3C=CC(C3)C2C1=O)Nc1ccccc1 (stereo unspecified) | 21.0 | .
CCc1nn2c(=O)cc(COc3ccc(/C=C4/C(=N)N5C=CSC5=NC4=O)cc3)nc2s1 | -11.0 | .
O=C(CN1C(=O)COc2ccccc21)Nc1ccc(S(=O)(=O)Nc2ncccn2)cc1 | 3.0 | .
COc1ccc(C2CC(=O)C3=C(C2)NC(C)=C(C(=O)OC(C)C)C3c2cc3c(cc2Br)OCO3)cc1 (stereo unspecified) | . | -2.5
CCCCn1cnc2cc(NCc3ccncc3)ccc21 | -9.0 | 1.1
O=C(Cc1csc2ccccc12)Nc1ccc(F)cc1 | . | 0.7
Cc1ccc(Cn2nc(C)c(/C=C/C(=O)O)c2Cl)cc1 | 16.0 | .
C/C(=N\OC(=O)c1nn(C)cc1Br)c1ccc(Cl)cc1Cl | 9.0 | -2.5
COC(=O)c1cc(=O)c2cc(C(F)(F)F)ccc2[nH]1 | . | 2.8
CN(C)C(=O)Cc1ccc(S(=O)(=O)N2CCCC2)s1 | -16.0 | .

Random excerpt: 4 entries already listed.
SMILES | Sa helicase inh | MgrA-DNA mod
CCOC(=O)C(CCC#N)(CCC#N)C(C)=O | . | 1.8
COc1ccc(C2CC(=O)C3=C(C2)NC(C)=C(C(=O)OC(C)C)C3c2cc3c(cc2Br)OCO3)cc1 (stereo unspecified) | . | -2.5
CCCOC(=O)C1=C(C)NC2=C(C(=O)CC(c3ccc(OC)cc3)C2)C1c1cc2c(cc1Cl)OCO2 (stereo unspecified) | . | 0.6
O=C(Cc1csc2ccccc12)Nc1ccc(F)cc1 | . | 0.7

Additional entries:
SMILES | Sa helicase inh | MgrA-DNA mod
CN(C)C(=S)Nc1ccc(C(C)(C)C)cc1 | -14.0 | .
COc1cc(/C=N/OC(=O)c2ccc(Cl)c(Cl)c2)cc(OC)c1OC | . | 0.9
O=c1c2ccccc2n(Cc2ccccc2)c(=O)n1-c1cccc(Cl)c1 | 3.0 | -1.3
CCS(=O)(=O)NCCCc1ccccc1 | 8.0 | 2.0
CN(Cc1cc2ccccc2[nH]c1=O)C(=O)c1ccccc1 | -4.0 | 0.7
COc1ccccc1C1CC(c2c(-c3ccccc3)c3cc(Cl)ccc3[nH]c2=O)=NN1C(C)=O (stereo unspecified) | . | -0.7
CCOC(=O)c1sc2nc(C)cc(C)c2c1N(C(C)=O)C(C)=O | 2.0 | .
CCCOc1ccc(C2NC(=O)NC(C)=C2C(=O)OC2CCCCCCC2)cc1OC (stereo unspecified) | . | -2.8
COC(=O)c1ccc(CSc2nc(N)cc(N)n2)cc1 | 10.0 | 0.7
COc1cc(/C=N/n2c(=S)[nH]nc(C)c2=O)cc(Br)c1O | -35.0 | .
COc1ccc(COC(=O)C2=C(C)NC3=C(C(=O)CC(C)(C)C3)C2c2coc3ccccc3c2=O)cc1 (stereo unspecified) | . | 2.1
CCc1ccccc1Nc1ncnc2c1cnn2-c1ccccc1 | -2.0 | .
O=C(NCCCn1ccnc1)c1nn2c(C(F)(F)F)cc(-c3ccc(Cl)cc3)nc2c1Cl | . | 0.2
CCN(C(=O)Cn1cnc2c(cnn2C)c1=O)c1ccccc1 | 7.0 | .
CC(C)NC(=O)CCc1nc(-c2ccc(C(C)(C)C)cc2)no1 | -1.0 | 1.1
CCc1ccc(NC(=O)CN(C)S(=O)(=O)c2ccc3[nH]c(=O)oc3c2)cc1 | 7.0 | .
C=CCn1c(C)cc(C(=O)Cn2c(C(C)O)nc3ccccc32)c1C (stereo unspecified) | 9.0 | .
CCOC(=O)c1ccccc1N/C=C/C(=O)C(C)(C)C | 10.0 | 0.9
Cc1ccccc1OCc1nnc(SCC(=O)O)n1CCc1ccccc1 | 21.0 | 1.0
CCCCNc1nc2ccccc2[nH]1 | -10.0 | .
CCCCN=C1SCC(c2cc(C)n(Cc3ccco3)c2C)=NN1C | 6.0 | .
CCn1c(=O)c2c(n3c(SCC(N)=O)nnc13)-c1ccccc1CC21CCCCC1 | 6.0 | -1.1
O=C(NCc1cccs1)c1cccs1 | . | 1.7
CN(Cc1ccccc1)C(=O)c1ccc(-n2ccc3ccccc32)s1 | 22.0 | .
Fc1cccc(Cl)c1CSc1ncn[nH]1 | . | 0.1
(listing goes on)
SMILES | Sa helicase inh | MgrA-DNA mod
O=C1CCC(C(=O)OCC(=O)N2CCOCC2)=NN1 | 7.0 | .
C=CCn1c(-c2nonc2NC(=O)CC)nc2ccccc21 | 5.0 | 0.0
CCOC(=O)c1[nH]c(CN2CCc3ccccc3C2)c(C(=O)OCC)c1C | -9.0 | .
CCCCc1ccc(NC(=O)CSc2nc(-c3ccccc3)c(-c3ccccc3)o2)c(C)c1 | . | 0.8
Cc1ccc(-n2cccc2)cc1 | . | -0.8
CN(Cc1cccs1)CC(O)COCc1ccco1 (stereo unspecified) | -9.0 | .
Clc1cccc(Cc2cn3cc(-c4ccccc4)nc3s2)c1 | -4.0 | 2.0
Cc1cc2cc(CNC(=O)C(C)C)ccc2n1C | 10.0 | .
COC(=O)C1=C(C)OC(N)=C(C#N)C1c1cc2ccc(C)cc2[nH]c1=O (stereo unspecified) | 12.0 | 6.0
CC(=O)NC12CC3CC(C1)CC(C(=O)OC(C)C(=O)Nc1ccccc1C#N)(C3)C2 (stereo unspecified) | 6.0 | .
NC(=S)N1N=C(c2cccs2)CC1c1ccco1 (stereo unspecified) | 7.0 | .
C=COC(=O)CSc1nc(-c2cccs2)ccc1C#N | 4.0 | 1.2
Cc1cnc(NC(=O)C2CCC(C(C)(C)C)CC2)s1 (stereo unspecified) | -10.0 | .
Cc1[nH]c(-c2ccc(F)cc2)cc1C(=O)N1CCN(c2ccccc2F)CC1 | -17.0 | .
[O-]/[N+](Cc1ccccc1F)=N\O | -1.0 | 2.7
CC(C)N1C(=O)/C(=C\c2cccc3ccccc23)SC1=S | -11.0 | -0.1
Cc1ccc(-n2nc3ccc(NC(=O)C(C)C)cc3n2)cc1 | -7.0 | -2.7
C=CCN(CC=C)Cc1nc(N)nc(Nc2ccccc2C)n1 | -11.0 | .
COc1ccc(C2Nn3c(C)nnc3SC2C(=O)N2CCCC2)cc1 (stereo unspecified) | -22.0 | .
NC(=O)CP(=O)(c1ccccc1)c1ccccc1 | 11.0 | -1.6
COc1ccc(CCNC(C#N)c2ccco2)cc1OC (stereo unspecified) | . | -1.8
N#C/C(=C/c1cn(-c2ccccc2)nc1-c1cc2ccccc2o1)S(=O)(=O)c1ccccc1 | 5.0 | 0.1
COc1ccc(NS(=O)(=O)c2ccccc2)cn1 | 11.0 | .
O=S(=O)(NCc1ccc(F)cc1F)c1cccc(C(F)(F)F)c1 | . | -1.6
CC(C)CCNC(N)=O | -12.0 | .

Record cards, from the list above.
`CC(C)CCNC(N)=O` as listed: Sa helicase inh: -12.0; MgrA-DNA mod: .
`Cc1ccc2c(c1)C1CN(C)CCC1N2C(=S)Nc1ccc(S(=O)(=O)N2CCOCC2)cc1` (stereo unspecified) as listed: Sa helicase inh: -9.0; MgrA-DNA mod: .

The list goes on.
SMILES | Sa helicase inh | MgrA-DNA mod
O=C(NC1CC1)c1cc2cc(Cl)ccc2oc1=O | 0.0 | -0.9
N#CCCCN1C(=O)C(=C(C#N)C#N)c2ccccc21 | -2.0 | 3.3
Cc1noc(C)c1COC(=O)CCc1ccc(S(=O)(=O)N2CCCCC2)cc1 | -6.0 | .
COC(=O)C1=C(N)OC2=C(C(=O)CCC2)C1c1ccc(Br)cc1 (stereo unspecified) | . | -1.1
CC1C2(C)OC(=N)C(C#N)(C(c3ccncc3)O2)C1(C#N)C#N (stereo unspecified) | -1.0 | -1.9
COC(=O)N(C)c1ccccc1C(=O)N1CCOCC1 | 14.0 | -2.4
Cc1cc(=O)[nH]c(NN=C(CC(C)C)CC(C)C)n1 | -5.0 | .
NC(=O)CC1=NC(=O)CS1 | 3.0 | 1.5
CCOc1ccc2nc(SCCC(=O)Nc3ccccc3)sc2c1 | 8.0 | 2.6
O=c1c(Cl)c(Cl)cnn1-c1nc2ccccc2[nH]1 | -2.0 | .
O=C(/C=C/c1ccc(Br)o1)OCC(=O)N1CCCC1=O | 6.0 | .
O=S(=O)(c1ccc(C2CCCCC2)cc1)N1CCCC1 | -25.0 | .
NC(=S)Cc1nnc(N2CCOCC2)n1-c1ccccc1 | 4.0 | .
c1ccc2c(c1)NCCCS2 | -7.0 | .
Cc1ccc(SC(C)C(=O)NCC(C)C)cc1 (stereo unspecified) | 6.0 | -0.3
OC1CCN(c2cc(C(F)(F)F)nc3cc(Cl)cc(Cl)c23)CC1 | . | -1.1
CCN1N=C(c2ccccc2)CCC1=O | 3.0 | -2.3
Cc1sc2nc(C)n(/N=C/N(C)C)c(=O)c2c1C | -2.0 | .
COc1ccc(-n2c(=O)[nH]cc(C(=O)N3CCCc4ccccc43)c2=O)cc1 | 1.0 | .
COC(=O)C1=C(C)N(CC2CCCO2)C(=O)/C1=C\c1cc(C)n(-c2ccc(OC)c(Cl)c2)c1C (stereo unspecified) | 9.0 | 2.8
CCOc1ncnc2ccc(Br)cc12 | 8.0 | 0.5
CCN(CC)C(=S)SCc1cn2cccnc2n1 | 5.0 | 1.2
Cc1cc(-n2c(C)cc(C(=O)CN3C(=O)NC4(CCCCCC4)C3=O)c2C)no1 | 0.0 | .

This is a subset; rates above refer to the full screens.
